# Env fusion inh: HIV envelope-mediated fusion inhibition | HeLa-JRFL Env/CEM21 cell fusion, luciferase | inhibition, % at 12.3 µM | 360,000 compounds, 1.1% hits | AID 651610;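 active = mean replicate inhibition score of at least 50 and every replicate individually at or above 50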;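 also: 0% = plate neutral controls and 100% = maraviroc near 300 nM; one replicate is shown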
# Yeast UUG start: modulators of start codon recognition fidelity in yeast; S. cerevisiae UUG-firefly luciferase reporter, luminescence/redox ratio; activity score, % at 18.7 µM; 350,000 compounds, 0.13% hits; AID 602363;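 active = replicate mean at a twofold rise or more, about +100% in these data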;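 also: firefly luciferase made from a UUG start codon reports start codon fidelity; reporter light over untreated wells divided by growth signal over untreated wells; some hits fall short of that in this replicate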
# The depositor's hits bear a star; [ ] = dose if it differs, or a comment. Only part of the results is shown, so the mix of outcomes need not match the whole.
SMILES,Env fusion inh,Yeast UUG start
CCCN(C)C[C@@H]1Oc2ncc(-c3cccc(C(=O)N(C)C)c3)cc2C(=O)N([C@@H](C)CO)C[C@@H]1C,-5.0[16.7 µM],-4.7
COc1ccccc1S(=O)(=O)N(C)C[C@H]1Oc2cc(/C=C/c3ccccc3)ccc2S(=O)(=O)N([C@@H](C)CO)C[C@@H]1C,-9.5[16.7 µM],-7.4
C[C@@H]1CCCCO[C@H](CN(C)C(=O)NC2CCCCC2)[C@@H](C)CN([C@@H](C)CO)C(=O)c2cc(NC(=O)Cc3ccccc3)ccc2O1,13.6[16.7 µM],-8.4
COc1cccc(-c2ccc([C@@H]3[C@@H](C#N)N(C(=O)Cc4ccccc4)[C@@H]3CO)cc2)c1,8.7[16.7 µM],6.3
C[C@@H]1CN([C@H](C)CO)C(=O)c2cccc(N(C)C)c2O[C@@H]1CN(C)C(=O)Nc1ccc(C(F)(F)F)cc1,8.3[16.7 µM],-5.5
C[C@@H]1CCCCO[C@@H](CN(C)S(=O)(=O)c2cccs2)[C@H](C)CN([C@H](C)CO)C(=O)c2cc(NC(=O)c3ccccc3)ccc2O1,-16.4[16.7 µM],-0.4
CO[C@@H]1CN(C)C(=O)c2ccc(NC(=O)C3CC3)cc2OC[C@H](C)N(C(=O)c2ccccc2F)C[C@@H]1C,-38.4[16.7 µM],-16.3
COc1ccc(S(=O)(=O)N[C@H]2CC[C@H](CCn3cc(C(C)C)nn3)O[C@@H]2CO)cc1,-4.0[16.7 µM],9.5
Cc1ccc(S(=O)(=O)N(C)C[C@H]2Oc3ncc(Br)cc3C(=O)N([C@H](C)CO)C[C@H]2C)cc1,32.5[16.7 µM],5.6
C[C@@H]1CCCCO[C@@H](CN(C)S(=O)(=O)c2ccc(Cl)cc2)[C@H](C)CN([C@H](C)CO)C(=O)c2cc(NC(=O)Nc3ccc(F)cc3)ccc2O1,25.4[16.7 µM],2.0
C[C@H]1CN([C@@H](C)CO)C(=O)c2cccc(NS(=O)(=O)c3cn(C)cn3)c2O[C@H]1CN(C)Cc1ccc(Cl)c(Cl)c1,7.6[16.7 µM],-14.6
Cc1noc(C)c1NC(=O)N(C)C[C@@H]1OCCCC[C@H](C)Oc2ccc(NC(=O)Cc3ccccc3)cc2C(=O)N([C@H](C)CO)C[C@@H]1C,-2.5[16.7 µM],-5.4
COc1ccc(S(=O)(=O)Nc2ccc3c(c2)CC(=O)N([C@@H](C)CO)C[C@@H](C)[C@@H](CN(C)S(=O)(=O)c2cccs2)O3)cc1,-12.9[16.7 µM],15.6
C[C@@H]1CN([C@@H](C)CO)C(=O)Cc2cc(NC(=O)Cc3cn(C)c4ccccc34)ccc2O[C@H]1CN(C)Cc1ccc(C(F)(F)F)cc1,9.4[16.7 µM],-3.1
O=C(C[C@@H]1CC[C@H]2NC[C@H](O)COC[C@@H]2O1)NC1Cc2ccccc2C1,-22.0[16.7 µM],-17.7
Cc1ccc(S(=O)(=O)N[C@@H]2C=C[C@@H](CC(=O)NCCc3ccncc3)O[C@@H]2CO)cc1,-22.6[16.7 µM],-8.5
COCC(=O)N1[C@@H](C#N)[C@H](c2ccc(C#Cc3ccccc3F)cc2)[C@@H]1CO,-19.2[16.7 µM],5.8
C[C@H]1CN([C@@H](C)CO)C(=O)c2cc(-c3ccncc3)cnc2O[C@@H]1CN(C)C(=O)C1CCCCC1,-11.8[16.7 µM],-11.6
C[C@H]1CN([C@@H](C)CO)C(=O)c2cccc(NC(=O)c3nc4ccccc4s3)c2O[C@@H]1CN(C)CC1CC1,15.2[16.7 µM],2.4
CNC(=O)C[C@@H]1CC[C@@H]2[C@@H](COc3ccc(NC(=O)Nc4cc(C)cc(C)c4)cc3C(=O)N2C)O1,1.7[16.7 µM],-11.7
COC(=O)C[C@H]1C=C[C@H](NS(=O)(=O)c2ccccc2F)[C@@H](CO)O1,-9.4[16.7 µM],-5.4
COc1ccc(NC(=O)Nc2ccc3c(c2)CC(=O)N([C@@H](C)CO)C[C@@H](C)[C@@H](CN(C)S(C)(=O)=O)O3)cc1,-8.4[16.7 µM],-4.6
C[C@@H]1CN([C@H](C)CO)C(=O)CCCn2nncc2CO[C@@H]1CN(C)Cc1ccc2c(c1)OCO2,5.0[16.7 µM],-8.3
COc1ccc(NC(=O)Nc2cccc3c2O[C@H](CN(C)S(=O)(=O)c2cn(C)cn2)[C@H](C)CN([C@@H](C)CO)C3=O)cc1,-10.0[16.7 µM],4.3
C[C@H](CO)N1C[C@H](C)[C@@H](CN(C)S(C)(=O)=O)Oc2cc(-c3cccc(F)c3)ccc2S1(=O)=O,14.5[16.7 µM],7.3

# Brought forward from above: 3 entries, followed by the next part.
SMILES,Env fusion inh,Yeast UUG start
C[C@@H]1CN([C@H](C)CO)C(=O)CCCn2nncc2CO[C@@H]1CN(C)Cc1ccc2c(c1)OCO2,5.0[16.7 µM],-8.3
COc1ccc(NC(=O)Nc2cccc3c2O[C@H](CN(C)S(=O)(=O)c2cn(C)cn2)[C@H](C)CN([C@@H](C)CO)C3=O)cc1,-10.0[16.7 µM],4.3
C[C@H](CO)N1C[C@H](C)[C@@H](CN(C)S(C)(=O)=O)Oc2cc(-c3cccc(F)c3)ccc2S1(=O)=O,14.5[16.7 µM],7.3
NCC[C@H]1CC[C@@H](NC(=O)Nc2ccc(F)cc2)[C@H](CO)O1,11.3[16.7 µM],11.8
C[C@H](CO)N1C[C@H](C)[C@H](CN(C)Cc2cccnc2)Oc2cc(C3=CCCC3)ccc2S1(=O)=O,-20.5[16.7 µM],4.7
CC(C)CC#Cc1cnc2c(c1)C(=O)N([C@@H](C)CO)C[C@@H](C)[C@@H](CN(C)Cc1cccc(F)c1)O2,25.4[16.7 µM],2.4
C[C@@H]1CN([C@H](C)CO)C(=O)c2cc(NC(=O)C3CCCCC3)ccc2O[C@H]1CN(C)C(=O)Nc1ccc(C(F)(F)F)cc1,5.5[16.7 µM],-14.8
O=C(C[C@@H]1CC[C@H](NC(=O)c2ccc3c(c2)OCO3)[C@H](CO)O1)NCc1ccc(F)cc1,-9.5[16.7 µM],-3.2
Cc1ccccc1-c1ccc2c(c1)O[C@H](CN(C)C(=O)C1CC1)[C@H](C)CN([C@@H](C)CO)S2(=O)=O,7.4[16.7 µM],0.7
C[C@@H]1CCCCO[C@H](CN(C)C(=O)Nc2ccc(F)cc2)[C@H](C)CN([C@H](C)CO)C(=O)c2cc(NS(=O)(=O)c3ccccc3)ccc2O1,12.8[16.7 µM],-4.9
C/C=C/c1ccc2c(c1)O[C@@H](CN(C)S(=O)(=O)c1ccccc1)[C@@H](C)CN([C@@H](C)CO)S2(=O)=O,22.2[16.7 µM],20.0
CC(C)NC(=O)Nc1ccc2c(c1)C(=O)N([C@@H](C)CO)C[C@@H](C)[C@@H](CN(C)C(=O)Nc1ccc(C(F)(F)F)cc1)O2,3.8[16.7 µM],-1.3
Cc1noc(C)c1S(=O)(=O)N(C)C[C@H]1Oc2ccc(NC(=O)Nc3ccc(F)cc3)cc2CC(=O)N([C@@H](C)CO)C[C@@H]1C,9.6[16.7 µM],-21.8
CCNC(=O)C[C@@H]1CC[C@@H]2[C@@H](COc3ccc(NC(=O)Cc4cccs4)cc3C(=O)N2C)O1,74.8*[16.7 µM],-19.5
C[C@H](CO)N1C[C@H](C)[C@H](CN(C)C(=O)C2CCC2)Oc2ncc(C#Cc3cccc(F)c3)cc2C1=O,-3.2[16.7 µM],2.9
COc1ccc(-c2ccc([C@H]3[C@H](C#N)N(C(=O)c4cccnc4)[C@H]3CO)cc2)cc1,-15.6[16.7 µM],-5.9
CCCC#Cc1ccc2c(c1)O[C@H](CN(C)C(=O)C1CCCCC1)[C@H](C)CN([C@H](C)CO)S2(=O)=O,5.4[16.7 µM],-9.4
COc1ccc(S(=O)(=O)N(C)C[C@H]2OCCCC[C@H](C)Oc3ccc(NC(=O)c4ccncc4)cc3C(=O)N([C@H](C)CO)C[C@H]2C)cc1,-8.4[16.7 µM],18.2
COc1ccccc1CNC(=O)C[C@@H]1CC[C@H]2[C@@H](COC[C@@H](O)CN2Cc2cccc(-c3ccncc3)c2)O1,18.0[16.7 µM],-8.2
CNC[C@H]1OCCCC[C@@H](C)Oc2ccc(NC(=O)CCC(F)(F)F)cc2C(=O)N([C@H](C)CO)C[C@@H]1C,6.9[16.7 µM],-21.6
C[C@@H]1CN([C@H](C)CO)C(=O)c2cc(NC(=O)Cc3ccccc3)ccc2O[C@@H]1CN(C)C(=O)Nc1ccccc1,9.6[16.7 µM],1.1
C[C@H]1CN([C@@H](C)CO)C(=O)c2cc(-c3ccc(F)cc3)cnc2O[C@H]1CN(C)Cc1ccc(C(=O)O)cc1,-24.7[16.7 µM],-8.3
C[C@@H]1CN([C@H](C)CO)C(=O)c2cc(NS(C)(=O)=O)ccc2O[C@@H](C)CCCCO[C@H]1CN(C)C(=O)Nc1ccccc1,-32.4[16.7 µM],4.2
C[C@H](CO)N1C[C@H](C)[C@@H](CN(C)CC2CCOCC2)Oc2ncc(C#Cc3ccncc3)cc2C1=O,-34.5[16.7 µM],-16.2
C[C@@H]1CN([C@H](C)CO)C(=O)c2cc(C#CC3CC3)cnc2O[C@@H]1CN(C)S(=O)(=O)c1cccc(F)c1,24.9[16.7 µM],6.2
COc1ccc(S(=O)(=O)N(C)C[C@@H]2Oc3c(NC(=O)c4ccc(-c5nccs5)cc4)cccc3C(=O)N([C@@H](C)CO)C[C@@H]2C)cc1,13.9[16.7 µM],3.6
O=C(C[C@@H]1C=C[C@H](NC(=O)Nc2ccc3c(c2)OCO3)[C@@H](CO)O1)NCc1ccccc1,-22.2[16.7 µM],-13.1
Cc1noc(C)c1NC(=O)N(C)C[C@@H]1OCCCC[C@H](C)Oc2ccc(NC(=O)Nc3ccc4c(c3)OCO4)cc2C(=O)N([C@H](C)CO)C[C@@H]1C,-9.5[16.7 µM],-7.7

# Compounds from the list above that contain a Cl atom:
SMILES,Env fusion inh,Yeast UUG start
C[C@@H]1CCCCO[C@@H](CN(C)S(=O)(=O)c2ccc(Cl)cc2)[C@H](C)CN([C@H](C)CO)C(=O)c2cc(NC(=O)Nc3ccc(F)cc3)ccc2O1,25.4[16.7 µM],2.0
C[C@H]1CN([C@@H](C)CO)C(=O)c2cccc(NS(=O)(=O)c3cn(C)cn3)c2O[C@H]1CN(C)Cc1ccc(Cl)c(Cl)c1,7.6[16.7 µM],-14.6

# Further entries.
SMILES,Env fusion inh,Yeast UUG start
CNC(=O)C[C@@H]1CC[C@@H]2[C@H](COc3ccc(NS(=O)(=O)c4cccc(F)c4)cc3C(=O)N2C)O1,6.4[16.7 µM],-13.7
CCC(=O)N(C)C[C@@H]1Oc2cc(C#CC(C)C)ccc2S(=O)(=O)N([C@H](C)CO)C[C@@H]1C,-14.7[16.7 µM],11.8
C[C@@H]1CN([C@@H](C)CO)S(=O)(=O)c2ccc(C3=CCCC3)cc2O[C@@H]1CN(C)Cc1cccnc1,-11.9[16.7 µM],1.1
C[C@@H]1CN([C@@H](C)CO)C(=O)Cc2cc(NC(=O)CCCCCC(=O)Nc3ccccc3N)ccc2O[C@@H]1CN(C)S(=O)(=O)c1ccc(F)cc1,9.2[16.7 µM],0.6
CNC[C@H]1Oc2ccc(N(C)C)cc2C(=O)N([C@H](C)CO)C[C@@H]1C,-17.8[16.7 µM],15.9
O=C(Nc1ccccc1F)N[C@H]1CC[C@@H](CCNS(=O)(=O)c2ccc(F)cc2)O[C@H]1CO,-7.8[16.7 µM],0.3
C[C@@H]1CN([C@H](C)CO)S(=O)(=O)c2ccc(-c3ccncc3)cc2O[C@H]1CN(C)Cc1cccnc1,-10.8[16.7 µM],-13.6
CCc1csc(N2[C@H](CO)[C@H](c3ccc(-c4cccc(F)c4)cc3)[C@@H]2C#N)n1,-14.7[16.7 µM],-13.5
CN1C(=O)c2cc(NS(=O)(=O)c3ccc(F)cc3)ccc2OC[C@H]2O[C@H](CC(=O)O)CC[C@@H]21,4.4[16.7 µM],-18.3
COCC#Cc1ccc2c(c1)O[C@H](CN(C)S(=O)(=O)c1ccc(C)cc1)[C@H](C)CN([C@H](C)CO)S2(=O)=O,4.0[16.7 µM],-6.8
C[C@H](CO)N1C[C@H](C)[C@@H](CN(C)C(=O)CC2CC2)Oc2cc(C#C[C@@H](C)O)ccc2S1(=O)=O,-29.0[16.7 µM],-5.2
C[C@H]1CN([C@@H](C)CO)C(=O)Cc2cc(NC(=O)C3CCCCC3)ccc2O[C@H]1CN(C)Cc1ccc(C(F)(F)F)cc1,-30.9[16.7 µM],-0.7
CCS(=O)(=O)Nc1ccc2c(c1)C(=O)N(C)[C@H]1CC[C@@H](CC(=O)N3CCOCC3)O[C@H]1CO2,4.2[16.7 µM],-1.8
C[C@@H]1CCCCO[C@H](CN(C)C(=O)Cc2ccccc2)[C@@H](C)CN([C@H](C)CO)C(=O)c2cc(NC(=O)c3ccncc3)ccc2O1,3.3[16.7 µM],3.7
C[C@H]1CN([C@@H](C)CO)C(=O)c2cccc(NS(=O)(=O)c3cccs3)c2O[C@@H]1CN(C)Cc1ccc(C(F)(F)F)cc1,8.0[16.7 µM],24.7
O=C(C[C@@H]1CC[C@H](NC(=O)NC2CCCCC2)[C@H](CO)O1)NCc1ccc(Cl)cc1,8.5[16.7 µM],-1.2
C[C@H]1CN([C@@H](C)CO)C(=O)c2cc(NC(=O)NC3CCCCC3)ccc2O[C@H]1CN(C)Cc1ccccc1,-4.6[16.7 µM],14.5
CCCc1cn(CC[C@H]2CC[C@H](NC(=O)C3CCCC3)[C@H](CO)O2)nn1,18.6[16.7 µM],19.3
Cc1ccccc1CN(C)C[C@H]1OCc2cnnn2CCCC(=O)N([C@@H](C)CO)C[C@H]1C,-6.9[16.7 µM],-8.4
C[C@@H]1CN([C@H](C)CO)C(=O)c2cccc(NC(=O)Nc3ccc(C(F)(F)F)cc3)c2O[C@H]1CN(C)C(=O)Nc1cccc2ccccc12,77.8*[16.7 µM],-5.3
C[C@@H]1CN([C@@H](C)CO)C(=O)c2cc(NC(=O)c3ccccc3)ccc2O[C@@H](C)CCCCO[C@H]1CN(C)C(=O)NC1CCCCC1,40.6[16.7 µM],7.6

# Screens from PubChem BioAssay.
